Bioassay records: PubChem, several laboratories
E coli growth = inhibitors of Escherichia coli growth; OD600, 23 h; stronger effect = lower value; OD600 absorbance (no concentration beside the values); 330,000 compounds, 0.21% hits; AID 1053175;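 active = OD600 absorbance below the run mean of sample wells minus 3.6 SD, in any replicate, cut at about 0.56 in these data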;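 note: stock transfer was 300 nL into about 60 µL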
FGF22 binding = shifts melting point of recombinant human FGF22 | calls only at 9.99 µM | recombinant FGF22 thermal shift, SYPRO orange fluorescence; percent of sucrose octasulfate shift, DMSO zero | AID 651658 | 340,000 compounds, 1.5% hits | Q9HCT0;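 active = melting point raised past a set limit in the mean and every replicate; three in four hits are not shown here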
Target sequence (Q9HCT0 whole entry, looked up): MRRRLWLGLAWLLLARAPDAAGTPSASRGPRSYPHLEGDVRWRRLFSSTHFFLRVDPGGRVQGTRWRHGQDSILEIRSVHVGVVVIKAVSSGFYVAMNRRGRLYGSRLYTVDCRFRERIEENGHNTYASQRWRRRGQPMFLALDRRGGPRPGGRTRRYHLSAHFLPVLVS
Ecoli rRNA inh = selective bacterial rRNA inhibition in E. coli; E. coli WT GFP vs humanized-ribosome RFP mutants, fluorescence, 24 h; stronger effect = lower value; DMSO median 0, no signal -100; AID 720706; GFP signal change (wild-type ribosome), % (no concentration beside the values); 350,000 compounds, 1.6% hits;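 active = significant combined selectivity score with lowered wild-type GFP, culture density cut under 30%, mutant RFP and density less affected; inactive = any of these conditions unmet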; note: one replicate is shown; some compounds called inactive have numbers as strong as hits
UCH37 inh = blocks the human deubiquitinase UCH37; 330,000 compounds, 0.33% hits; inhibition, % (test concentration not listed); purified proteasome/UCH37, Ub-AMC cleavage fluorescence; AID 588478;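 active = mean of two replicates above 20%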;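 note: 0% = compound-free wells with enzyme and 100% = wells lacking proteasome; stock transfer was 100 nL into about 20 µL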
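Material: Human UCH37 enzyme supplied as purified proteasome complex | Schedule: 30 min compound-proteasome preincubation then 25 min substrate reaction, room temperature | Detection: AMC fluorescence from Ub-AMC cleavage, excitation 355 nm, emission 460 nm | Benchmarks: Wells without proteasome as full block, compound-free enzyme plus substrate as uninhibited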
B2AR ag = agonists of human beta-2 adrenergic receptor inducing internalization | P07550 | Am2.2-beta2AR cells, FAP receptor internalization, flow cytometry; reference of the scale not given here | response, % (test concentration not listed) | 340,000 compounds, 0.43% hits | AID 504454;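 active = response above a set limit, near 3 SD of response in nonfluorescent compounds, cut at about 42% in these data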;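 note: stock transfer was 100 nL into about 11 µL; a reference agonist was the positive control; negative values mostly stem from fluorescent compounds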
Target sequence (P07550 whole entry, looked up): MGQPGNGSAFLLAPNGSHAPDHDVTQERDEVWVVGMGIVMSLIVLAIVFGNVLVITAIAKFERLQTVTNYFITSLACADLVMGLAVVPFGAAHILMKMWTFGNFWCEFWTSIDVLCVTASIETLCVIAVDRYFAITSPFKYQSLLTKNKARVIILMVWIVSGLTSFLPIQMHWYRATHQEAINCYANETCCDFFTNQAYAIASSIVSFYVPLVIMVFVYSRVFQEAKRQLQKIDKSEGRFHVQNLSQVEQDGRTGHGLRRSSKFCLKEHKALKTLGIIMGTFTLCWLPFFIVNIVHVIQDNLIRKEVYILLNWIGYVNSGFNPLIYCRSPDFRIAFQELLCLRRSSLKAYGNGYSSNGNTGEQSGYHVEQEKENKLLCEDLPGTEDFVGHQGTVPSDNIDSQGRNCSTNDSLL
HNF4A DNA FP = change in binding of human HNF4 alpha to DNA; AID 1224865; activity change, % at 10 µM; HNF4a-FITC DNA binding, fluorescence polarization, 1 h; 360,000 compounds, 0.3% hits; in the data active = activity change above about 30%, passing the limit was not always enough;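 note: controls were the assay level and a saturating level of protein; the project sought stronger binding though the title names inhibitors; some compounds called inactive have numbers as strong as hits; positive values seem to mean higher polarization but the record does not say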
ALR H2O2 inh = human ALR oxidase inhibition via reduced H2O2 | P55789 | purified ALR, DTT oxidation, H2O2 HRP-luminol luminescence | inhibition, % (concentration not given with the values) | 290,000 compounds, 3.8% hits | AID 485317;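 active = mean and each replicate at 75% or more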;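 note: stock transfer was 7.5 nL into about 7.5 µL; 0% = neutral wells and 100% = wells with inactivated enzyme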
Target sequence (P55789 whole entry, looked up): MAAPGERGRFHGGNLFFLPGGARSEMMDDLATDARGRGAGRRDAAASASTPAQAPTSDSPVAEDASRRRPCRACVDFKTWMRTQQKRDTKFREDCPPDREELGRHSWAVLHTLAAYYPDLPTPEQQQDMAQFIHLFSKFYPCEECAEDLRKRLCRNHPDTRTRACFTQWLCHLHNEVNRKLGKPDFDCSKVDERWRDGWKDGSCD
Ecoli rRNA inh OD600 = further read-out of Ecoli rRNA inh, marked with its call; OD600 change, %; measured here: OD600 growth;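 optical density of the mix in the first replicate; 0 = DMSO median and -100 = no signal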
Ecoli rRNA inh RFP = also measured in Ecoli rRNA inh; calls as there; RFP signal change, %; measured here: RFP humanized mutant strains;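 first replicate; 0 = DMSO median and -100 = no signal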
Numbers without * were called inactive; i = inactive; . = no result given; + = active, no number; & = joins results of further samples. Not all compounds are listed; the hit share may differ from the screen's.

SMILES | E coli growth | FGF22 binding | Ecoli rRNA inh | Ecoli rRNA inh OD600 | Ecoli rRNA inh RFP | UCH37 inh | B2AR ag | HNF4A DNA FP | ALR H2O2 inh
C[C@@H]1CN([C@H](C)CO)S(=O)(=O)c2ccc(C#Cc3cccc(F)c3)cc2O[C@@H]1CN(C)C(=O)CN1CCOCC1 | . | i | -0.8 | -6.0 | 2.1 | . | . | 1.0 | .
CCc1ccccc1NC(=O)CCCN1C(=O)C2CC=CCC2C1=O (stereo unspecified) | 0.685 | i | -5.4 | -10.3 | 0.0 | 0.7 | 0.8 | 0.5 | -23.2
O=C(COc1ccc(Cl)cc1)N(Cc1ccc(F)cc1)C1CCS(=O)(=O)C1 (stereo unspecified) | 0.617 | i | -5.4 | 0.5 | 1.8 | 1.4 | -0.9 | 4.6 | -16.5
COc1ccc(CCNS(=O)(=O)CCNC(=O)c2ccc3c(c2)OCO3)cc1 | 0.69 | + | -1.3 | -2.6 | -0.2 | 4.3 | -7.7 | -2.8 | -2.5
CCCCCCCCN1C(=O)N(C)C(N(O)C(=O)NC)C1(C)C (stereo unspecified) | 0.758 | . | . | . | . | 6.4 | 0.1 | 2.6 | -4.7
CCO[C@H]1OC(C(=O)N2CCN(Cc3ccc4c(c3)OCO4)CC2)=C[C@@H](c2ccc3c(c2)OCO3)[C@@H]1CCCO | . | i | -22.5* | -16.4* | -9.1* | 4.4 | 10.3 | -0.6 | -7.0
O=C(N/N=C/c1ccco1)C1COc2ccccc2O1 (stereo unspecified) | . | . | . | . | . | . | -0.5 | 0.5 | 3.8
CC1(C(=O)NS(=O)(=O)c2ccccc2Cl)CCN1C(=O)CCc1ccccc1 (stereo unspecified) | . | i | 10.8 | 23.6 | 0.8 | . | . | -4.5 | .
CC(OC(=O)Cc1coc2cc3c(cc12)CCC3)C(=O)NCc1ccc2c(c1)OCO2 (stereo unspecified) | 0.792 | . | . | . | . | 3.6 | -1.9 | -0.5 | .
CC(C)(C)SCCNS(=O)(=O)c1ccc(Cl)cc1 | 0.632 | i | -34.4 | -40.6 | -5.7 | 2.5 | -2.2 | -1.4 | -2.8
CCOc1ccc(CCNC(=O)c2cccc(S(=O)(=O)N3CCCC3)c2)cc1OCC | 0.701 | i | -4.8 | -0.1 | -1.8 | 1.3 | 9.8 | 2.4 | -11.7
CCOc1ccc(-n2c(C)cc(C(=O)NS(=O)(=O)c3ccc(C)cc3)c2C)cc1 | 0.67 | i | 6.6 | -3.4 | 0.4 | 1.6 | 0.8 | -2.1 | 24.2
O=C(O)CSc1ccc(NC(=O)Nc2ccccc2F)cc1 | 0.661 | i | 8.0 | 11.2 | -0.5 | 5.0 | 2.7 | -0.9 | 51.8
COC(=O)C1CC(c2c(OC)cc(OC)cc2OC)=NO1 (stereo unspecified) | 0.722 | . | . | . | . | 2.3 | 9.4 | 0.8 | -8.0
N#Cc1c(/N=C/c2ccccc2)oc(-c2ccccc2)c1-c1ccccc1 | . | . | . | . | . | . | 9.0 | -1.3 | 18.3
O=S(=O)(Nc1ccc(N2CCCCC2)cc1)c1ccc(F)cc1F | 0.653 | i | -13.9 | -5.6 | 4.3 | 0.3 | 5.7 | -2.3 | 68.9
CCCCNc1nc(N)ncc1[N+](=O)[O-] | . | i | 0.5 | -11.0 | 0.4 | . | -11.2 | -3.4 | -2.4
CC(OC(=O)Cn1cnc2c1c(=O)n(C)c(=O)n2C)C(=O)N(C)c1ccccc1 (stereo unspecified) | 0.661 | i | 4.6 | 5.5 | -1.9 | 3.2 | -1.1 | -0.7 | -9.6
COc1cccc(COC(=O)C2CCN(S(=O)(=O)c3ccc(C)cc3)CC2)c1OC | 0.7 | i | -7.0 | -10.8 | 2.2 | -1.8 | -2.6 | -0.4 | -3.7
O=C(OCC(=O)N1CCN(C(=O)c2ccco2)CC1)c1ccc(Cl)c(Cl)c1 | 0.646 | i | 3.2 | -21.4 | -2.3 | 1.5 | -1.4 | -3.8 | .
Cc1ccc(CNC(=O)CCSCc2cccc(F)c2)cc1 | 0.661 | i | 5.0 | -2.8 | -1.6 | 3.6 | -9.3 | -5.7 | -0.9
Cc1ccc(Cl)cc1N1CCN(S(=O)(=O)c2cn(C)cn2)CC1 | 0.684 | i | -10.2 | -14.9 | -2.0 | 1.3 | -1.1 | 0.7 | -1.9
COc1ccc(-c2cc(-c3ccccc3)c(C#N)c(S(C)(=O)=O)n2)cc1 | 0.754 | . | . | . | . | -350.0 | 9.6 | -2.2 | 9.5
COc1cccc(CN2CC(C(=O)N(C)Cc3ccnc4ccccc34)CCC2=O)c1 (stereo unspecified) | 0.665 | i | 0.7 | -1.1 | -3.1 | 2.7 | -4.5 | 0.5 | -4.4

Single records (already shown):
CC1(C(=O)NS(=O)(=O)c2ccccc2Cl)CCN1C(=O)CCc1ccccc1 (stereo unspecified) is listed as E coli growth = .; FGF22 binding = i; Ecoli rRNA inh = 10.8; Ecoli rRNA inh OD600 = 23.6; Ecoli rRNA inh RFP = 0.8; UCH37 inh = .; B2AR ag = .; HNF4A DNA FP = -4.5; ALR H2O2 inh = .
COC(=O)C1CC(c2c(OC)cc(OC)cc2OC)=NO1 (stereo unspecified) is listed as E coli growth = 0.722; FGF22 binding = .; Ecoli rRNA inh = .; Ecoli rRNA inh OD600 = .; Ecoli rRNA inh RFP = .; UCH37 inh = 2.3; B2AR ag = 9.4; HNF4A DNA FP = 0.8; ALR H2O2 inh = -8.0

The list goes on.
SMILES | E coli growth | FGF22 binding | Ecoli rRNA inh | Ecoli rRNA inh OD600 | Ecoli rRNA inh RFP | UCH37 inh | B2AR ag | HNF4A DNA FP | ALR H2O2 inh
COc1cc2c(cc1NC(=O)COC(=O)C1CC(=O)N(Cc3ccco3)C1)oc1ccccc12 (stereo unspecified) | 0.732 | . | . | . | . | -12.7 | 7.3 | -2.5 | 0.8
CCOC(=O)c1oc2ccccc2c1NC(=O)c1ccc(Cl)s1 | 0.721 | i | 3.4 | 7.2 | -0.7 | -1.6 | -6.4 | -0.3 | 16.3
Cc1cc2nc(-c3cccnc3SCC(=O)NC3CC3)[nH]c2cc1C | 0.677 | i | 4.4 | -4.8 | -1.2 | -44.1 | . | . | -13.2
Cc1ccc(OCCOC(=O)CN2C(=O)NC3(CCCC3)C2=O)cc1 | 0.582 | i | -4.5 | -2.1 | -1.6 | 2.6 | 6.2 | -2.7 | -0.1
COc1ccc(/C=N/NC(=O)c2cccc(C(=O)N/N=C/c3ccc(OC)c(OC)c3)n2)cc1OC | . | i | 8.6 | 10.1 | -0.5 | . | -5.8 | 1.9 | .
C[C@@H]1C(=O)N(c2ccccc2)[C@@H]1c1ccncc1 | 0.706 | i | 20.3 | 7.3 | 0.8 | 3.2 | -4.2 | -2.3 | .
CCOC(=O)N1CCN(C(=O)CNC(=O)Cc2ccc(Cl)cc2)CC1 | 0.675 | . | . | . | . | 33.3* | -1.6 | 0.1 | -7.2
COC(=O)CNC(c1ccccc1)c1cc(Br)ccc1NS(=O)(=O)c1ccc(C)cc1 (stereo unspecified) | 0.728 | i | 22.8 | 17.5 | -0.3 | -0.7 | 12.5 | -0.4 | -2.5
CCCCc1c(O)cc(C)[nH]c1=O | 0.653 | i | 2.9 | 12.1 | -1.3 | -1.2 | -10.9 | -3.4 | .
COc1cc(C2Nc3ccccc3C(=O)N2c2ccccc2)c(Br)cc1OCC(=O)O (stereo unspecified) | 0.658 | . | . | . | . | -147.7 | -0.6 | 0.5 | .
O=C(CCc1ccccc1)NNC(=O)CCc1ccccc1 | 0.671 | i | 5.5 | 10.2 | -2.0 | 4.2 | 7.0 | -0.2 | -6.1
CCc1noc(C)c1C(=O)OCC(=O)c1ccc(OC)c(OC)c1 | 0.644 | i | -1.1 | -1.5 | -3.1 | -0.1 | 1.1 | 1.5 | .
Oc1ccccc1/C=N/Nc1nn[nH]n1 | . | i | 16.1 | 10.2 | 1.0 | . | 1.4 | -5.2 | 64.5
COc1ccc(/C(C)=N/NC(=O)CNC(=O)c2cccnc2)c(OC)c1 | . | i | 8.6 | 17.5 | -0.6 | . | 2.0 | 3.8 | -19.5
Cc1ccc(CNC(=S)NC2CCC(C(C)(C)C)CC2)cc1 (stereo unspecified) | 0.638 | i | -16.0 | -35.2 | 12.0 | -0.3 | 17.1 | 0.2 | 3.2
Cc1ccc(OCCCCCN2CCOCC2)cc1 | 0.622 | i | 6.8 | 5.5 | 0.0 | 1.0 | -5.9 | -1.3 | 2.2
CCc1[nH]c(=O)c(C#N)c2c1CCCC2 | 0.674 | . | . | . | . | 3.7 | -3.3 | 3.1 | 2.7
COc1ccc(/C=N/NC(=O)c2ccc(CSc3nc(C)cc(C)n3)cc2)cc1O | . | i | . | . | . | . | -1.6 | -1.0 | 77.4*
CCCc1cc(C(=O)Nc2cccnc2)no1 | 0.638 | i | 0.9 | 9.1 | -1.6 | -0.9 | -13.1 | -1.4 | 9.7
C[C@H](CO)N1C[C@H](C)[C@@H](CN(C)Cc2ccncc2)Oc2c(NC(=O)C3CCCCC3)cccc2C1=O | . | i | -3.2&0.0 | -8.0&-2.0 | -2.5&-0.2 | 1.6 | 5.3 | 0.3 | -1.8
COCC(=O)N1CCC(Oc2ccc(C(=O)NCc3cc(C(C)C)no3)cc2)CC1 | . | i | -2.3 | 11.7 | 0.2 | . | -2.0 | 4.8 | -1.5
CCOC(=O)CCCNS(=O)(=O)c1c(C)ccc2nsnc12 | 0.702 | . | . | . | . | 3.0 | 3.3 | 17.1 | .
CC1=C(C)CC(C(=O)Nc2nccs2)C(C(=O)O)C1 (stereo unspecified) | 0.716 | . | 0.1 | 6.5 | 3.8 | 0.2 | 0.8 | 2.1 | 6.1
O=C(Nc1cccc(Cl)c1)c1cc(N=Nc2ccc([N+](=O)[O-])cc2Cl)ccc1O | 0.496* | i | -44.6 | -65.8 | -4.6 | 17.1 | 36.3 | -61.9 | 1.2
Cc1cc(C)n(-c2nc(Nc3ccccc3C)nc(-n3nc(C)cc3C)n2)n1 | 0.686 | . | . | . | . | -1.9 | . | . | 3.1
O=C(O)c1ccccc1-c1ccccc1C(=O)Nc1ccc(F)cc1 | 0.697 | i | -2.2 | -0.6 | 2.6 | 1.2 | -3.6 | 1.1 | 1.8
CS(=O)(=O)N1CCC(C(=O)Nc2cc(Cl)ccc2Cl)CC1 | 0.689 | i | 4.1 | 8.2 | -3.6 | 5.1 | -0.7 | 0.4 | -3.5
Cc1ccc(OC(=O)c2oc3ccc(F)cc3c2C)c(C)c1 | 0.662 | i | -0.7 | -5.5 | -7.2 | 3.6 | 0.7 | -0.3 | 0.2
CN(C)S(=O)(=O)c1ccc(N2CCCC2)c(C(=O)NNC(=O)COc2cccc(F)c2)c1 | 0.671 | i | -5.7 | -0.8 | -11.3 | -5.6 | -3.7 | -4.6 | .
Cc1ccc(C)c(Cn2c3ccccc3c3cnn(CC(=O)NCCN4CCOCC4)c(=O)c32)c1 | 0.642 | i | 1.8 | -4.3 | 4.0 | -7.5 | 2.7 | -1.8 | -0.2
O=C(N/N=C\c1cccnc1)c1cc(-c2ccc(Cl)s2)[nH]n1 | . | + | 8.4 | 4.8 | -0.2 | . | 6.9 | 8.1 | 3.9
COC(=O)CCC(C)C1CCC2C3CCC4CC(O)CCC4(C)C3=CC(=O)C12C (stereo unspecified) | 0.679 | i | -42.0 | -47.1 | -19.7 | 0.2 | 0.9 | -3.9 | .
